FGF22 binding: shifts melting point of recombinant human FGF22; Q9HCT0; recombinant FGF22 thermal shift, SYPRO orange fluorescence; percent of sucrose octasulfate shift, DMSO zero; calls only at 9.99 µM; 340,000 compounds, 1.5% hits;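 active means melting point raised past a set limit in the mean and every replicate; three in four hits are not shown here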
Target sequence (Q9HCT0 whole entry, looked up): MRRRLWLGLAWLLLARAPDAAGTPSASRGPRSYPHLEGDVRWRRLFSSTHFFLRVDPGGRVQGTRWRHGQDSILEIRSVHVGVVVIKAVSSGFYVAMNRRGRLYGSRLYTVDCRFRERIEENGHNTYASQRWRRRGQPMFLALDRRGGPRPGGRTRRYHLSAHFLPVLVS
MLL AF4-AF9 inh: inhibitors of human MLL-AF4/AF9 interaction; inhibition, % at 10 µM; AID 651704; 350,000 compounds, 0.47% hits; AlphaScreen, biotin-AF4 peptide binding to FLAG-AF9;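 active means every replicate reaching a set inhibition limit, whatever the replicate mean, cut at about 25% in these data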;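 further: 0% = plate neutral control median and 100% = total signal loss; the record names both 10 and 1 µM as test concentration; the first replicate is given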
Target sequence (P42568 whole entry, looked up): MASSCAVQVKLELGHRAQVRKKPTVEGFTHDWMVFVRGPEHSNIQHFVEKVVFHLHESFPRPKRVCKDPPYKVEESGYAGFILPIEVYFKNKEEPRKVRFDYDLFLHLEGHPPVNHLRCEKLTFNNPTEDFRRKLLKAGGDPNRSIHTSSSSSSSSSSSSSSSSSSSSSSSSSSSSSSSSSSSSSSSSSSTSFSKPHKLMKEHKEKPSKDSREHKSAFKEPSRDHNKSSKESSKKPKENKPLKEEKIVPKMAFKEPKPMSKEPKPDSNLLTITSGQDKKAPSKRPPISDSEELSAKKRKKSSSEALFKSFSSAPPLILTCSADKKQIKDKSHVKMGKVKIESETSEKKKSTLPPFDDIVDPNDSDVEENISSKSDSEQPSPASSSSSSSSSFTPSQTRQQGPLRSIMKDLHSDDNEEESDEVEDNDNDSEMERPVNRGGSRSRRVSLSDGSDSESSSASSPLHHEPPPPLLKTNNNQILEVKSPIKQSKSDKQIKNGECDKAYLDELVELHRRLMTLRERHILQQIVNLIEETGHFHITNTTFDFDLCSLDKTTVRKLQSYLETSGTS
Active calls of the source: *; i = inactive; nt = not tested or not shown. Some of the compounds tested (hit frequency here may not be typical).

SMILES	FGF22 binding	MLL AF4-AF9 inh
CCC(=O)N1CC2(C1)[C@H](c1ccccc1)[C@H](CO)N2CC1CC1	i	-2.7
C[C@@H]1CN([C@@H](C)CO)C(=O)c2cc(NC(=O)Cc3ccccc3)ccc2O[C@@H](C)CCCCO[C@H]1CN(C)C(=O)CCC(F)(F)F	i	-3.1
CCCN1[C@H](C(=O)OC)[C@@H](CO)[C@@H]2Cn3c(ccc(C4=CCCC4)c3=O)[C@@H]21	i	-0.2
CO[C@H]1CN(C)C(=O)c2ccc(NS(=O)(=O)c3ccc(Cl)cc3)cc2OC[C@H](C)NC[C@@H]1C	i	-1.4
C[C@H]1CN([C@@H](C)CO)C(=O)c2ccccc2-c2ccccc2CO[C@@H]1CN(C)C(=O)Nc1ccccc1C(F)(F)F	i	-6.8
COc1ccc(S(=O)(=O)N(C)C[C@H]2Oc3ccc(NC(=O)Cc4cn(C)c5ccccc45)cc3CC(=O)N([C@H](C)CO)C[C@@H]2C)cc1	i	1.6
COc1ccc(CNC(=O)N(C)C[C@H]2OCc3ccccc3-c3c(n(C)c4ccccc34)C(=O)N([C@H](C)CO)C[C@@H]2C)cc1	i	2.3
O=C(c1cnccn1)N1CC(=O)N2[C@@H](CO)[C@H](c3ccc(/C=C/c4ccccc4)cc3)[C@@H]2C1	i	4.7
C[C@H]1CN([C@@H](C)CO)S(=O)(=O)c2ccc(C#CCC3CCCC3)cc2O[C@H]1CN(C)C(=O)c1cnccn1	i	2.6
O=C(Nc1ccc(C(F)(F)F)cc1)N[C@H]1C=C[C@H](CC(=O)N2CCCCC2)O[C@H]1CO	i	-3.9
CCCC(=O)Nc1ccc2c(c1)OC[C@@H](C)N(C(=O)CN(C)C)C[C@@H](C)[C@H](OC)CN(C)C2=O	i	-1.3
C[C@H](CO)N1C[C@H](C)[C@H](CN(C)C(=O)C2CC2)OCc2cn(nn2)CCCC1=O	i	0.2
O=C([C@H]1N[C@H]2c3ccc(C4=CCCCC4)c(=O)n3C[C@H]2[C@@H]1CO)N1CCC(Cc2ccccc2)CC1	i	0.3
CO[C@@H]1CN(C)C(=O)c2ccc(NC(=O)C3CCC3)cc2OC[C@H](C)N(Cc2ccc(F)cc2)C[C@@H]1C	i	2.8
COc1ccc(S(=O)(=O)N(C)C[C@@H]2Oc3ccc(N(C)C)cc3CC(=O)N([C@H](C)CO)C[C@H]2C)cc1	i	2.1

Among those listed so far, 3 contain an aryl methoxy group.
SMILES	FGF22 binding	MLL AF4-AF9 inh
COc1ccc(S(=O)(=O)N(C)C[C@H]2Oc3ccc(NC(=O)Cc4cn(C)c5ccccc45)cc3CC(=O)N([C@H](C)CO)C[C@@H]2C)cc1	i	1.6
COc1ccc(CNC(=O)N(C)C[C@H]2OCc3ccccc3-c3c(n(C)c4ccccc34)C(=O)N([C@H](C)CO)C[C@@H]2C)cc1	i	2.3
COc1ccc(S(=O)(=O)N(C)C[C@@H]2Oc3ccc(N(C)C)cc3CC(=O)N([C@H](C)CO)C[C@H]2C)cc1	i	2.1

(more compounds)
SMILES	FGF22 binding	MLL AF4-AF9 inh
COc1ccc(NC(=O)Nc2ccc3c(c2)C(=O)N([C@@H](C)CO)C[C@H](C)[C@@H](CN(C)C(=O)C2CCCCC2)OCCCC[C@@H](C)O3)cc1	i	0.3
Cc1noc(C)c1NC(=O)N(C)C[C@@H]1Oc2ncc(C#CC(C)C)cc2C(=O)N([C@@H](C)CO)C[C@H]1C	i	-5.5
O=C(C[C@H]1CC[C@@H]2[C@H](COC[C@@H](O)CN2C(=O)Nc2cccc(F)c2)O1)NCCCN1CCOCC1	i	-1.7
COc1ccccc1CNC(=O)C[C@H]1C[C@@H]2c3cc(NC(=O)C4CCC4)ccc3O[C@@H]2[C@H](CO)O1	i	0.0
CCCN1[C@@H]2c3ccc(-c4ccc(C(=O)N(C)C)cc4)c(=O)n3C[C@@H]2[C@@H](CO)[C@@H]1C(=O)NCCOC	i	0.7
CCN(C[C@@H]1[C@@H](c2ccc(-c3cccnc3)cc2)[C@H](CO)N1C(C)=O)C(C)=O	i	-3.0
O=C(C[C@H]1CC[C@@H](NC(=O)Nc2ccccc2)[C@H](CO)O1)NCc1ccccn1	i	-0.8
CO[C@@H]1CN(C)C(=O)c2ccc(NS(=O)(=O)c3cccc(F)c3)cc2OC[C@@H](C)N(Cc2cc(F)ccc2F)C[C@H]1C	i	-6.1
CO[C@H]1CN(C)C(=O)c2ccc(NC(=O)Nc3cc(F)ccc3F)cc2OC[C@@H](C)NC[C@@H]1C	i	2.0
COc1ccc(S(=O)(=O)Nc2ccc3c(c2)CC(=O)N([C@H](C)CO)C[C@@H](C)[C@@H](CN(C)S(=O)(=O)c2ccc(OC)cc2)O3)cc1	i	5.5
C[C@@H]1CCCCO[C@H](CN(C)C(=O)c2ccccc2)[C@H](C)CN([C@@H](C)CO)C(=O)c2cc(NC(=O)CCC(F)(F)F)ccc2O1	i	-8.0
COc1cccc(S(=O)(=O)N(C)C[C@@H]2Oc3ncc(C#CC(C)C)cc3C(=O)N([C@@H](C)CO)C[C@@H]2C)c1	i	-1.7
CO[C@@H]1CN(C)C(=O)c2ccc(NC(=O)Cc3ccccc3)cc2OC[C@@H](C)N(CC2CC2)C[C@@H]1C	i	-0.5
C[C@H]1CN([C@@H](C)CO)C(=O)Cc2cc(NC(=O)Nc3ccccc3)ccc2O[C@H]1CN(C)C(=O)Nc1ccc(F)cc1	i	0.5
C[C@@H]1CN([C@H](C)CO)C(=O)c2cccc(NC(=O)Nc3ccc(F)cc3)c2O[C@H]1CN(C)Cc1ccc2c(c1)OCO2	i	5.2

Sorted by length of the SMILES (lowest first): part of the list above.
SMILES	FGF22 binding	MLL AF4-AF9 inh
O=C(C[C@H]1CC[C@@H](NC(=O)Nc2ccccc2)[C@H](CO)O1)NCc1ccccn1	i	-0.8
CO[C@@H]1CN(C)C(=O)c2ccc(NC(=O)Cc3ccccc3)cc2OC[C@@H](C)N(CC2CC2)C[C@@H]1C	i	-0.5
O=C(C[C@H]1CC[C@@H]2[C@H](COC[C@@H](O)CN2C(=O)Nc2cccc(F)c2)O1)NCCCN1CCOCC1	i	-1.7
COc1cccc(S(=O)(=O)N(C)C[C@@H]2Oc3ncc(C#CC(C)C)cc3C(=O)N([C@@H](C)CO)C[C@@H]2C)c1	i	-1.7

Following part.
SMILES	FGF22 binding	MLL AF4-AF9 inh
C[C@H](CO)N1C[C@H](C)[C@H](CN(C)C)Oc2c(NC(=O)Nc3ccc4c(c3)OCO4)cccc2C1=O	i	1.3
C[C@H]1CCCCO[C@@H](CN(C)C(=O)Cc2ccccc2)[C@@H](C)CN([C@@H](C)CO)C(=O)c2cc(NC(=O)c3ccncc3)ccc2O1	i	-1.3
O=C(C[C@@H]1CC[C@@H]2[C@H](COC[C@H](O)CN2Cc2cccc(-c3ccncc3)c2)O1)N1CCCCC1	i	0.4
Cc1ccc(S(=O)(=O)N(C)C[C@@H]2Oc3ccc(NC(=O)NC(C)C)cc3CC(=O)N([C@H](C)CO)C[C@@H]2C)cc1	i	-0.4
CC=Cc1ccc2n(c1=O)C[C@@H]1[C@@H](CO)[C@H](C(=O)NCC(F)(F)F)[C@H]2N1C(=O)C1CCCC1 (mixture of isomers)	i	-1.0
CO[C@H]1CN(C)C(=O)c2cc(NC(=O)CC(F)(F)F)ccc2OC[C@@H](C)N(C(=O)c2ccccc2F)C[C@@H]1C	i	0.9
C[C@H]1CCCCO[C@@H](CN(C)Cc2ccccc2)[C@@H](C)CN([C@@H](C)CO)C(=O)c2cc(NC(=O)c3ccncc3)ccc2O1	i	3.2
C[C@@H]1CCCCO[C@@H](CN(C)Cc2ccc(Cl)c(Cl)c2)[C@@H](C)CN([C@H](C)CO)C(=O)c2cc(NS(=O)(=O)c3ccccc3)ccc2O1	i	-0.7
C[C@@H]1CN([C@H](C)CO)C(=O)Cc2cc(NC(=O)C3CC3)ccc2O[C@H]1CN(C)C(=O)Nc1ccc(C(F)(F)F)cc1	i	-3.0
CC(C)[C@H](C)NC(=O)N(C)C[C@@H]1OCc2ccccc2-c2ccccc2C(=O)N([C@@H](C)CO)C[C@@H]1C	i	-2.2
COCc1[nH]nc2c1C(c1ccc(Br)cc1)N(Cc1ccccc1)C2=O (stereo not given)	nt	1.9
C[C@H]1CN([C@@H](C)CO)C(=O)c2cc(NS(=O)(=O)c3ccccc3)ccc2O[C@H]1CN(C)S(=O)(=O)c1cn(C)cn1	i	-3.2
CC(C)NC(=O)N1CCCCN2[C@H](C1)[C@H](c1ccc(C#C[C@H](C)O)cc1)[C@@H]2CO	i	-4.0
Cc1cccc(S(=O)(=O)N[C@@H]2CC[C@@H](CCNC(=O)Nc3cc(F)ccc3F)O[C@H]2CO)c1	i	11.3
CN1CCN(C(=O)C[C@@H]2CC[C@H]3[C@@H](COC[C@H](O)CN3Cc3cccc(Cl)c3)O2)CC1	i	-0.2
Cc1ccc(S(=O)(=O)N(C)C[C@@H]2Oc3ccc(NC(=O)Nc4ccc5c(c4)OCO5)cc3C(=O)N([C@H](C)CO)C[C@@H]2C)cc1	i	4.5
O=C(C[C@@H]1C[C@@H]2c3cc(NC(=O)C4CCOCC4)ccc3O[C@@H]2[C@@H](CO)O1)NCc1ccc(Cl)cc1	i	0.6
COc1ccc2c3c([nH]c2c1)[C@@H](CO)N(C(=O)c1cccc(F)c1)CC31CCN(C(=O)c2ccccc2)CC1	i	15.4
C[C@@H]1CN([C@@H](C)CO)C(=O)Cc2cc(NS(=O)(=O)c3cn(C)cn3)ccc2O[C@H]1CN(C)Cc1ccc(Cl)c(Cl)c1	i	8.8
CC(C)NC(=O)N(C)C[C@H]1OCc2ccccc2-c2ccccc2C(=O)N([C@@H](C)CO)C[C@H]1C	i	0.1
O=C(NCc1ccc(F)cc1)[C@@H]1[C@@H](CO)[C@@H]2Cn3c(cccc3=O)[C@H]1N2CC1CC1	i	-0.5
COc1ccc(NC(=O)Nc2ccc3c(c2)C(=O)N([C@@H](C)CO)C[C@H](C)[C@H](CN(C)S(=O)(=O)c2cccs2)OCCCC[C@@H](C)O3)cc1	i	-1.2
CCC(=O)N1[C@H](CO)[C@@H](c2ccccc2)[C@@H]1CN(C)C(=O)c1ccccc1F	i	-1.6
CS(=O)(=O)N1CC(=O)N2[C@H](CO)[C@H](c3ccc(C#Cc4ccc(F)cc4)cc3)[C@@H]2C1	i	-2.8
Cc1noc(C)c1S(=O)(=O)N(C)C[C@@H]1OCCCC[C@@H](C)Oc2ccc(NC(=O)CCCN(C)C)cc2C(=O)N([C@H](C)CO)C[C@H]1C	i	4.9
CCC(=O)N(C)C[C@@H]1Oc2ncc(C#CCc3ccccc3)cc2C(=O)N([C@H](C)CO)C[C@@H]1C	i	-5.3
O=C(N[C@@H]1CC[C@H](CCNS(=O)(=O)c2ccc(F)cc2)O[C@H]1CO)C1CCCC1	i	-1.3
COc1ccccc1S(=O)(=O)N[C@@H]1CC[C@@H](CCn2cc(C3CC3)nn2)O[C@H]1CO	i	-0.5
Cc1noc(C)c1NC(=O)N(C)C[C@@H]1Oc2ccc(N(C)C)cc2C(=O)N([C@@H](C)CO)C[C@H]1C	i	-3.7
COc1ccc(NC(=O)N(C)C[C@H]2Oc3ccc(NC(=O)CCC(F)(F)F)cc3CC(=O)N([C@@H](C)CO)C[C@H]2C)cc1	i	-0.1
COCC#Cc1ccc2c(c1)O[C@H](CN(C)Cc1cncnc1)[C@H](C)CN([C@@H](C)CO)S2(=O)=O	i	0.3
CC(C)C#Cc1ccc([C@H]2[C@@H](CO)N3CCCCN(CC4CC4)C[C@@H]23)cc1	i	2.0
O=C(N[C@H]1CC[C@@H](CCNC(=O)C2CCCCC2)O[C@H]1CO)c1ccncc1	i	-0.8
O=C(N[C@@H]1CC[C@H](CC(=O)N2CCCCC2)O[C@@H]1CO)c1ccccn1	i	-0.5
C/C=C/c1ccc([C@H]2[C@@H](CO)N(C(=O)Cc3cccnc3)[C@H]2CNC(C)=O)cc1	i	1.2
CO[C@@H]1CN(C)C(=O)c2cc(NC(=O)c3cc(C)on3)ccc2OC[C@H](C)N(CC2CC2)C[C@H]1C	i	-2.9
C[C@@H]1CN([C@H](C)CO)C(=O)c2cc(C#CCN(C)C)cnc2O[C@H]1CN(C)C(=O)c1cccc(F)c1	i	-4.0
C[C@@H]1CN([C@@H](C)CO)C(=O)c2cc(N(C)C)ccc2O[C@@H](C)CCCCO[C@@H]1CN(C)C(=O)Nc1ccccc1	i	6.5
C[C@@H]1CN([C@@H](C)CO)C(=O)c2cc(NC(=O)CCC(F)(F)F)ccc2O[C@@H](C)CCCCO[C@@H]1CN(C)C(=O)C1CCCCC1	i	-2.5
C[C@@H]1CN([C@H](C)CO)C(=O)Cc2cc(NC(=O)Nc3ccc(F)cc3)ccc2O[C@H]1CN(C)Cc1ccc(Cl)c(Cl)c1	i	-0.3
[N-]=[N+]=Nc1ccccc1C[C@@]1(C(=O)N2CCOCC2)N=C(c2ccc(OCCCO)cc2)O[C@@H]1c1ccccc1	i	6.7
COCC(=O)N(C)C[C@@H]1Oc2cc(C#CC(C)(C)O)ccc2S(=O)(=O)N([C@@H](C)CO)C[C@H]1C	i	1.5
CCCNC(=O)C[C@@H]1C[C@@H]2c3cc(NC(=O)Nc4ccccc4F)ccc3O[C@@H]2[C@H](CO)O1	i	-8.5
CCS(=O)(=O)N[C@H]1C=C[C@H](CC(=O)NC2Cc3ccccc3C2)O[C@H]1CO	i	-0.9
C[C@@H]1CN([C@@H](C)CO)C(=O)Cc2cc(NS(=O)(=O)c3cn(C)cn3)ccc2O[C@@H]1CN(C)Cc1ccc(Cl)c(Cl)c1	i	3.2
C/C=C/c1ccc2c(c1)O[C@H](CN(C)C(=O)Nc1cc(F)ccc1F)[C@H](C)CN([C@@H](C)CO)S2(=O)=O	i	-1.7
C[C@@H]1CN([C@H](C)CO)C(=O)c2cc(C#Cc3cccnc3)cnc2O[C@@H]1CN(C)C(=O)CC1CC1	i	-5.3

Bioassay records: PubChem BioAssay, Broad Institute
